Bioassay records as filed in PubChem BioAssay.
VACV mCherry inh: inhibitors of vaccinia virus infection (mCherry reporter signal); Vaccinia virus mCherry reporter infection, fluorescence; about a quarter of the inactives have no number; Potency, µM (series often up to 36.5 µM), without a hit: at the top dose activity change, negative = inhibition, usual class: inhibitors; 310,000 tested, 0.63% active; AID 720579; active = well fitted inhibition curve with a large enough effect; inconclusive = small, poorly fitted or top-dose-only effect; inactive = no such curve, though single readings can be large or run the other way; tested in A549 cells; further: nearly all actives have a fitted effect of over 35% in size; inactives centre near -10
Vaccinia Venus: vaccinia inhibition (Venus reporter); Vaccinia virus Venus reporter expression, fluorescence; Potency, µM (doses to about 36.5 µM), for inactives: at the top dose activity change, negative = inhibition, most hits filed as inhibitors; 330,000 tested, 0.46% active; AID 720580; active means well fitted inhibition curve with a large enough effect; inconclusive means small, poorly fitted or top-dose-only effect; inactive means no such curve, though single readings can be large or run the other way; tested in A549 cells; further: nearly all actives have a fitted effect of over 30% in size; inactives centre near -10
Starred values were filed as active, the others as inactive; i = inactive; ? = inconclusive; . = not tested or not shown; [ ] = another dose, or the depositor's remark. On the % scale 0 is the no-effect control and ±100 the full control effect; potency means the concentration at half of the fitted maximal effect.

SMILES	VACV mCherry inh	Vaccinia Venus
C[C@H](CO)N1C[C@H](C)[C@@H](CN(C)S(=O)(=O)c2ccccc2)Oc2c(NC(=O)C3CC3)cccc2C1=O	-24.4%	-23.2%
Cc1ccc(C2=C(c3ccc([N+](=O)[O-])cc3)C(=O)OC2)cc1C	i	-9.3%
O=C(Cn1ncc2c3ccccc3n(Cc3ccc(F)cc3)c2c1=O)NC1CCCCCC1	1.9%	-0.8%
COc1ccc(S(=O)(=O)c2c(O)c3ccc(C(=O)Nc4ccc(F)cc4F)cc3[nH]c2=O)cc1	-4.8%[7.34 µM]	5.2%[7.34 µM]
O=C(NCc1ccc(Cl)cc1)c1ccc(NC(=O)C2CCCO2)cc1 (configuration not stated)	-1.9%	3.9%
O=C(/C=C/c1cccs1)N1CCC2(CC1)Oc1ccc(F)cc1C(=O)C21CC(c2ccc(Cl)cc2)=NO1 (configuration not stated)	-8.0%	-22.7%
COC(=O)C1CCN(Cc2ccc(OCCCN3CCN(c4ccc([N+](=O)[O-])cc4)CC3)cc2)CC1	?	-9.5%
O=C(NCc1ccccc1)NC(O)C(Cl)(Cl)Cl (configuration not stated)	i	-6.9%
COc1ccc(CC(N)c2csc(NC(=O)c3cccc(OC(F)(F)F)c3)n2)cc1 (configuration not stated)	?	?
Cc1ccccc1NC(=O)CCC(=O)N1CC(C)Sc2ccccc21 (configuration not stated)	-11.0%	-1.3%
COCCOC(=O)c1c(NC(=O)CSc2cccc[n+]2[O-])sc(C(N)=O)c1C	-10.9%	-10.0%
CCCC/C(O)=N\S(=O)(=O)c1ccc(N=NN(C)C)cc1	-3.1%	-1.8%
COc1ccc(CC(=O)NCc2ccc3c(c2)CCN3C(=O)c2ccc(Cl)cc2)cc1	i	-9.7%
COCCCn1c(=O)c2sccc2n2c(CCCC(=O)N(C)Cc3ccco3)nnc12	i	-6.4%
COc1ccccc1C(=O)N(Cc1cc2cccc(C)c2nc1N1CCC(O)CC1)C1CC1	-13.5%	5.1%
COc1ccc(CCNC(=O)c2cnc3sc(N4CCCCCC4)nn3c2=O)cc1	?	?
COc1ccccc1NC(=O)C1CCCN1C(=O)NC1CCCCC1 (configuration not stated)	i	-3.2%
CNS(=O)(=O)c1ccc(C(C)(C)C)cc1	4.0%	5.6%
Cc1ccc2sc(N3CCN(C(=O)c4ccc([N+](=O)[O-])o4)CC3)nc2c1C	-8.7%	-19.4%
COc1ccc(OC)c(C(=O)CN2C(=O)N(c3cc(C)cc(C)c3)S(=O)(=O)c3ccccc32)c1	-8.3%	-10.6%
CNC(=S)NCCc1ccc(OC)cc1	-2.9%	-5.9%
CCC(CC)C(=O)N(C)c1c(C)nc2c(OCCOc3ccc(F)cc3)cccn12	-3.5%	-20.8%
O=C(CC1SC(N2CCCC2)=NC1=O)Nc1ccc(C(=O)Nc2ccccc2)cc1 (configuration not stated)	i	-7.7%
Fc1cccc(CN2CCN3CCCC3C2C2CCCCC2)c1 (configuration not stated)	.	-28.6%

Brought forward from above: four compounds, then new ones.
SMILES	VACV mCherry inh	Vaccinia Venus
CNC(=S)NCCc1ccc(OC)cc1	-2.9%	-5.9%
CCC(CC)C(=O)N(C)c1c(C)nc2c(OCCOc3ccc(F)cc3)cccn12	-3.5%	-20.8%
O=C(CC1SC(N2CCCC2)=NC1=O)Nc1ccc(C(=O)Nc2ccccc2)cc1 (configuration not stated)	i	-7.7%
Fc1cccc(CN2CCN3CCCC3C2C2CCCCC2)c1 (configuration not stated)	.	-28.6%
CCC(C)(C)NC(=O)CN(C(=O)CCC(=O)Nc1nccs1)c1ccc2c(c1)OCCO2	-7.5%	0.9%
O=C(O)c1cccc(N/N=C/c2cccnc2)c1	i	-6.9%
COCCCNC(=O)C1CCN(c2nc3ccc(C)cc3[nH]2)CC1	-10.0%	-12.9%
CCOC(=O)C1=C(C)Nc2sc(C(=O)c3ccc(Br)cc3)c(N)c2C1c1ccc(C(=O)OC)cc1 (configuration not stated)	i	-11.1%
CCCCNC(=O)Cn1c(=O)n(C)c2ccccc21	i	-5.9%
O=C(NC1CCCC1)c1ccccc1OCc1ccccc1	-13.5%	-11.7%
C=C1NN(Cc2ccccc2)C(=O)N1c1ccc(OC)cc1	44.3%[activator]	-9.4%
Cc1noc(C)c1COC(=O)C1CCN(S(=O)(=O)c2ccc(F)cc2)CC1	i	-18.6%
O=C(O)C1C2C=CC(C2)C1C(=O)N1CCOCC1 (configuration not stated)	-2.9%	-11.8%
O=C1N=c2ccc([N+](=O)[O-])cc2=C1c1sc(=O)[nH]c1O	i	-4.1%
CC(=O)NC(C)(c1ccccc1)c1nc(-c2ccc(S(C)(=O)=O)cc2)cs1 (configuration not stated)	31.5%[activator]	-10.9%
O=C(O)CC/C(=N\Nc1ccc(S(=O)(=O)N2CCCC2)cc1[N+](=O)[O-])c1cccs1	?	-27.1%
O=C(Nc1cc2c(cc1C(=O)c1ccc(Br)cc1)OCCO2)c1ccc(Cl)cc1	?	?
O=C(CN1N=C(c2ccc(Cl)cc2)CCC1=O)NCCc1ccc(Cl)cc1	-9.2%	-0.6%
Cn1nc(C(=O)Nc2nc3ccccc3[nH]2)c2ccccc2c1=O	-29.0%	-21.4%
COCCN1Cc2cccc(C(=O)Nc3ccccc3OC)c2C1=O	-18.1%	-6.0%
CCC1CCCCN1Cc1nc2c(c(=O)n(C)c(=O)n2C)n1CCCc1ccccc1 (configuration not stated)	-3.6%	-4.2%
CCC(=O)N(CCc1ccc(OC)c(OC)c1)Cc1cc2ccc(C)cc2n2nnnc12	-5.6%	-2.5%
Cc1cc2cc3c(C)cc(=O)oc3c(C)c2o1	i	-11.1%
COc1ccc(NC(=O)CSc2n[nH]c(C(C)C)n2)c([N+](=O)[O-])c1	-13.9%	-25.6%
Cc1n[nH]c(C)c1Sc1ccccc1N=Cc1cc(Cl)cc([N+](=O)[O-])c1O	i	-2.9%
CC(=O)C1CCC2C3CCC4CC(O)CCC4(C)C3C(=O)CC12C (configuration not stated)	-22.1%	-18.2%
COC(=O)c1ccc(C(=O)OC)c(NC(=O)CSCc2ccccc2Br)c1	.	-8.0%
O=C(c1ccccc1F)N1CCC2CC1c1cc(-c3ccc4c(c3)OCO4)ccc12 (configuration not stated)	15.2%	-0.7%
CCC(CC)C(=O)N1c2ccccc2C(C)(c2ccccc2)CC1(C)C (configuration not stated)	-10.1%	-8.5%
CCc1nnc(NS(=O)(=O)c2ccc(N/C=C/C(=O)c3ccc(C)cc3)cc2)s1	-6.3%	4.4%
CN(CC(=O)Nc1ccc(Cl)c(Cl)c1)C(=O)CC1OC(=O)c2ccccc21 (configuration not stated)	-0.4%	-11.3%
COc1ccccc1CNC(=O)c1ccc2nc(N3CCOCC3)sc2c1	-5.1%	-13.4%
CC(C)=CCN1CC[C@@]2(C)c3cc(O)ccc3C[C@@H]1C2C (some centres not stated)	i	-12.0%
O=[N+]([O-])c1ccc(S(=O)(=O)Nc2cccc(-c3ccc(N4CCOCC4)nn3)c2)cc1	-25.1%	-23.6%
CCCNC(=O)OCC12CC3CC(CC(C3)C1)C2	-17.6%	-15.7%
COC(=O)c1nnn(-c2nonc2N)c1CSc1ccc(Cl)cc1	.	-26.2%
c1ccc(C(c2ccccc2)N2CCN(Cc3nnnn3C3CCCC3)CC2)cc1	.	?
O=C(NCc1ccco1)c1nnc(Cc2ccc(F)cc2)o1	-13.7%	4.0%
c1csc(-c2nn[nH]n2)c1	.	-4.3%
COc1ccccc1NS(=O)(=O)c1cc(N)ccc1N1CCCC1	-11.0%	-2.8%
CCc1cc2cc3c(cc2nc1SCC(=O)N1CCN(C(=O)c2ccco2)CC1)OCO3	.	?
CCOC(=O)CSc1nc(N)nc(C)c1Br	.	-6.6%
O=C(CCc1nnc2ccc(NCc3ccccc3)nn12)NC1CCCC1	i	-11.1%
COc1ccc(NC(=S)NCCCN2CCOCC2)cc1	i	-7.7%
COc1ccc(OC)c(NC(=O)C2=C(C)NC(=O)NC2c2cccs2)c1 (configuration not stated)	-0.7%	-12.5%
O=C(Nc1ccccc1)/C(=C\c1ccc(F)cc1)NC(=O)c1ccco1	i	0.0%
Cn1nc(C(=O)NCC(c2cccs2)N2CCOCC2)c2ccccc2c1=O (configuration not stated)	-9.8%	5.6%
COc1ccc2c(c1)[nH]c1c(N3CCN(Cc4ccc5c(c4)OCO5)CC3)ncnc12	?	?
COc1cc(C2Nc3ccccc3C(=O)N2c2ccccc2)ccc1O (configuration not stated)	.	-15.9%
Cn1cnnc1SC1CCCCC1NS(=O)(=O)c1ccc(Cl)cc1 (configuration not stated)	-17.6%	-7.8%
COCCCNC(=O)COc1ccc(S(=O)(=O)NCc2ccccc2)cc1Cl	-20.1%	-12.9%
CC(C)(C)[C@H]1C=C(C(=O)N2CCN(Cc3ccc4c(c3)OCO4)CC2)O[C@@H](OCCCCO)C1	-5.7%	-13.9%
CCc1nc(SCC(=O)NCCc2ccc(OC)c(OC)c2)c2c(=O)n(C)c(=O)n(C)c2n1	51.1%[activator]	0.2%
CCC(CC)NC(=O)COC(=O)c1ccc2c(c1)C(=O)N(Cc1ccco1)C2=O	i	-19.2%
Cc1cc(C)c2nc(-c3ccccn3)cc(C(=O)NCCc3ccc(S(N)(=O)=O)cc3)c2c1	i	-16.8%
O=c1c2cc(-c3ccccc3)sc2nc2n1N=C(c1ccccc1)CS2	-6.5%	0.9%
CCOC(=O)C1CCCN(C(=O)/C=C/c2ccccc2)CC1 (configuration not stated)	i	3.7%
OCCNc1nc2nonc2nc1NCCO	i	2.7%
Cc1ccc(C)c(-c2nnc(NC(=O)CCS(=O)(=O)c3ccc(F)cc3)o2)c1	-24.7%	-20.6%
O=C(O)C1C2C=CC(C2)C1C(=O)N1CCN(C/C=C/c2ccccc2)CC1 (configuration not stated)	.	-6.7%
c1ccc(Oc2ccc(-c3cc(NCCc4cccnc4)n4nccc4n3)cc2)cc1	-6.4%	3.2%
C[C@H](/C=C/[C@@]1(O)[C@H](C)C[C@H](O)CC1(C)C)O[C@@H]1O[C@H](CO)[C@@H](O)[C@H](O)[C@H]1O	16.4%	3.1%
Cc1nn(CCCC(=O)NCc2cccc(F)c2)c(=O)c2nn(-c3ccccc3)c(C)c12	?	-28.3%
COc1ccccc1-n1cnnc1SCc1csc(-c2ccccc2)n1	.	-13.6%

Carrying on:
SMILES	VACV mCherry inh	Vaccinia Venus
COc1ccc(-c2nc(SCC(=O)NCc3ccco3)c(-c3ccccc3)[nH]2)cc1OC	-25.5%	-22.4%
CN(C)S(=O)(=O)c1ccc(C(=O)NC2CCCc3ccccc32)cc1 (configuration not stated)	-8.7%	-7.9%
Cc1ccccc1OCC(=O)N/N=C/c1ccc(N(C)C)cc1	-17.9%	-22.7%
O=C(O)COc1ccccc1/C=N/NC(=O)CSc1nc2ccccc2n1Cc1ccccc1	-26.3%	-10.0%
CC(Sc1nnc(-c2ccco2)n1N)C(=O)NCc1ccc2c(c1)OCO2 (configuration not stated)	i	-4.0%
COc1cc(CNC2CCCCC2OC)cc(OC)c1 (configuration not stated)	-15.3%	-12.8%
COc1ccc(-n2sc3ccc(F)cc3c2=O)cc1	?	?
Cc1ccc(S(=O)(=O)N(Cc2cccc(C)c2)C(=O)N2CCN(C)CC2)cc1	-11.7%	-4.1%
COC(=O)c1ccc(/C=N/Nc2nc(C)c(C)s2)cc1	?	?
Cc1cc2sc3ccc(C#CC4(O)CCCCC4)cc3c(=O)c2cc1C	?	-21.9%
COc1ccc(C(=O)CCC(=O)Nc2cc(Cl)c(O)c(Cl)c2)cc1	-5.6%	-9.7%
CN1CCN(C(=O)c2ccc3c(c2)N(Cc2ccc(F)cc2)C(=O)c2ccccc2S3(=O)=O)CC1	-14.8%	-2.8%
COc1ccc(CC2SC(=Nc3ccc(F)cc3)NC2=O)cc1 (configuration not stated)	i	-0.6%
N[C@@H](COP(=O)(O)O)C(=O)O	-12.5%	-5.7%
COc1ccc(/C=C/C(=O)OCC(=O)Nc2ccc(Cl)c(S(=O)(=O)N(C)C)c2)cc1OC	-19.8%	-5.7%
O=C(/C=C/NCc1ccc(F)cc1)c1ccccc1	i	-11.7%
O=C(Nc1cccc(O)c1)c1cccc(S(=O)(=O)Nc2cccc(O)c2)c1	i	2.4%
Cc1cccc(NC(=O)CSCC(=O)Nc2nnc(C3CC3)s2)c1	-11.4%	-14.4%
CCOc1ccccc1NC(=O)c1c(NCc2ccc(OC)c(OC)c2OC)sc2c1CCC(C)C2 (configuration not stated)	-20.2%	-6.4%
COc1ccc(C(c2nnnn2CCc2ccccc2)N2CCN(C)CC2)cc1OC (configuration not stated)	-26.6%	-13.1%
CCC(=O)NC(=S)Nc1ccc(-c2nc3ccccc3s2)cc1	.	-17.3%
COCCCNC(=O)Cn1nc(-c2ccccc2OC)ccc1=O	i	-6.4%
COc1ccc(-c2nc(CS(=O)CC(=O)NC3CCCC3)c(C)o2)cc1 (configuration not stated)	-0.8%	-9.6%
CN(C)c1cc(NC(=O)CN2CCCC2)c2ccccc2n1	7.1%	-2.3%
Nn1c(SCC(=O)Nc2ccc3c(c2)OCCO3)nnc(CCC(=O)O)c1=O	-3.9%[7.34 µM]	0.0%[7.34 µM]
CC(C)C(=O)N=C1NC(=O)CS1	-3.2%	7.6%
CN=c1c([N+](=O)[O-])nn(-c2ccc3c(c2)OCCO3)n1O	12.6µM*	?

Whole records, looked up by structure. Screens in order: VACV mCherry inh, Vaccinia Venus
O=C(/C=C/NCc1ccc(F)cc1)c1ccccc1 reads i, -11.7%
COc1ccc(/C=C/C(=O)OCC(=O)Nc2ccc(Cl)c(S(=O)(=O)N(C)C)c2)cc1OC reads -19.8%, -5.7%

Compounds as they come, and some 0.87% of all compounds hit somewhere here.
